Source: PubChem BioAssay
Cruzain inh noDet – blocks cruzain activity in detergent-free assay; purified cruzain, Z-FR-AMC fluorescence, no detergent; P25779; Potency, µM, for inactives: max response, negative = inhibition, usual class: inhibitors; 200,000 tested, 2.3% active;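 further: plate controls were enzyme without inhibitor for no effect and buffer without enzyme for full effect; nearly all actives have a fitted effect of over 40% in size; top concentration of the series not given in the record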
Target sequence (P25779 123-467 limits assumed): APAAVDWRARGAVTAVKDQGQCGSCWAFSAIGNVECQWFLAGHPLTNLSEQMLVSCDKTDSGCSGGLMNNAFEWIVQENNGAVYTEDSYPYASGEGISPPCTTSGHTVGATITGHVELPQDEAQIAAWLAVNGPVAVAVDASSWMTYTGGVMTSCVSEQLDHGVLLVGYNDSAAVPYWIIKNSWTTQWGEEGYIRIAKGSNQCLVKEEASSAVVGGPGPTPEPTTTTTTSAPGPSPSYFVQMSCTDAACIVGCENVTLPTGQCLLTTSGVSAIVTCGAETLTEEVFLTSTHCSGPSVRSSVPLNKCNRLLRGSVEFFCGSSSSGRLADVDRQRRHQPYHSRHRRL
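Purified cruzain at 1.5 nM, pre-incubated 15 min with compound at room temperature in 100 mM sodium acetate pH 5.5, 5 mM DTT, 0.00005% Triton X-100. Reaction started with 2 uM Z-FR-AMC; AMC fluorescence increase over 60 s gives rate.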
MARV entry inh – inhibitors of Marburg virus binding or cell entry | AID 540276 | Marburg virus pseudotyped entry inhibition, cell reporter; control for the full effect not named in the record; about a third of the inactives were read at about 46 µM | 300,000 tested, 1.8% active | Potency, µM (doses to about 37.8 µM), for the others: at the highest dose activity change, negative = inhibition, hits mostly inhibitors; active = well fitted inhibition curve with a large enough effect; inconclusive = small, poorly fitted or top-dose-only effect, or effect the other way; inactive = flat fitted curve, though single readings scatter; tested in HEK293 cells; about a fifth of its hits are not listed in these tables; further: on the % scale 0 is the no-effect control and ±100 the full control effect; luciferase read-out
SARS PLpro yeast – blocks SARS-CoV papain-like protease in a yeast assay; 330,000 tested, 0.19% active; Potency, µM (titrated, usually from 32.9 µM), for the others: at the highest dose activity, positive = growth rescue; S. cerevisiae expressing SARS-CoV PLpro, growth rescue; control for the full effect not named in the record; active means well fitted rising curve with a large enough effect; inconclusive means small, poorly fitted or top-dose-only effect; inactive means no such curve, though single readings can be large or run the other way; further: 0% is about no effect; nearly all actives have a fitted effect of over 55% in size; growth read by luminescence after 48 h
LASV entry inh – blocks Lassa virus binding to or entry into cells | Lassa virus pseudotype entry inhibition, cell reporter; control for the full effect not named in the record | Potency, µM (doses to about 37.9 µM), inactives show top-dose activity change, negative = inhibition, most hits filed as inhibitors | 300,000 tested, 1.2% active; active means well fitted inhibition curve with a large enough effect; inconclusive means small, poorly fitted or top-dose-only effect, or effect the other way; inactive means flat fitted curve, though single readings scatter; tested in HEK293 cells; further: on the % scale 0 is the no-effect control and ±100 the full control effect; nearly all actives have a fitted effect of over 50% in size; luciferase read-out
Cruzain inh Det – inhibitors of Trypanosoma cruzi cruzain with detergent. 200,000 tested, 0.43% active. purified cruzain, Z-FR-AMC fluorescence, 0.01% Triton. Potency, µM, for inactives: max response, negative = inhibition, actives largely listed as inhibitors. P25779;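 further: plate controls were neutral wells for no effect and buffer without enzyme for full effect; nearly all actives have a fitted effect of over 40% in size; top concentration of the series not given in the record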
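15 min RT preincubation of 1.5 nM cruzain with compound, then 2 uM Z-FR-AMC added; kinetic AMC fluorescence, 60 s delta. Triton X-100 0.01%, pH 5.5.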
RE007 growth inh – less growth of the S. pombe RE007 Vpr strain; S. pombe RE007 Vpr strain, BacTiter-Glo ATP luminescence, 24 h; control for the full effect not named in the record; Potency, µM (top dose mostly 92.2 µM), for inactives: at the highest dose activity change, negative = less growth; 360,000 tested, 0.21% active; AID 651644; active = well fitted falling curve with a large enough effect; inconclusive = small, poorly fitted or top-dose-only effect; inactive = no such curve, though single readings can be large or run the other way;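 further: on the % scale 0 is the no-effect control and ±100 the full control effect; nearly all actives have a fitted effect of over 50% in size; the assay follows cell death caused by Vpr and the record does not say whether a fall means rescue or toxicity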
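Fission yeast strain RE007, carrying one chromosomally integrated HIV-1 vpr copy, was seeded at OD 0.01 in PMG+AL medium with 23 nL pinned compound. After 24 h at 30 °C and 99% humidity, viability was read by BacTiter-Glo luminescence.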
StopGo reporter – lowers the luciferase signal of an FMDV 2A StopGo reporter; human cells with a luciferase reporter of 2A StopGo recoding; control for the full effect not named in the record; Potency, µM (series often up to 57.9 µM), inactives show at the highest dose signal change, negative = less light; 410,000 tested, 1.2% active; AID 1159524; active = well fitted falling curve with a large enough effect; inconclusive = small, poorly fitted or top-dose-only effect; inactive = no such curve, though single readings can be large or run the other way; tested in HEK293T cells; further: on the % scale 0 is the no-effect control and ±100 the full control effect; nearly all actives have a fitted effect of over 45% in size; luciferase light after 4 h
NS1 inh – inhibitors of influenza NS1 protein function | S. cerevisiae slowed by influenza A NS1, growth recovery by OD600 | AID 2326 | 270,000 tested, 0.4% active | Potency, µM (doses to about 46.1 µM), for inactives: at the highest dose activity, positive = more growth; active means well fitted rising curve with a large enough effect; inconclusive means small, poorly fitted or top-dose-only effect; inactive means no such curve, though single readings can be large or run the other way; further: nearly all actives have a fitted effect of over 50% in size
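In this qHTS, NS1 from influenza A is expressed in budding yeast, where it slows growth. Cells are switched from glucose to 2% galactose medium (pH 6.0, -URA), treated with compound, and growth recovery is read at OD600.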
* hit, by the source's call; ? = inconclusive; . = not tested or not shown; & = joins results of further samples; [ ] = remark or other dose. Unless noted, the call rests on the fitted dose curve; in most records, active means well fitted curve in the direction sought with a large enough effect; inconclusive means small, poorly fitted or top-dose-only effect, or another doubt; inactive means no such curve, though single readings can be large; an effect the other way counts as inactive or inconclusive. Potency means the concentration at half of the fitted maximal effect.

Second line of a record: NS1 inh | RE007 growth inh | SARS PLpro yeast | MARV entry inh | LASV entry inh | Cruzain inh Det | Cruzain inh noDet | StopGo reporter
> COc1cc(/C=C/C(=O)c2ccc(NS(=O)(=O)c3ccc(C)cc3)cc2)ccc1OC(F)F
    6% | -22% | 16% | ? | ? | -2.3% | 10µM* | ?
> CCN(C(=O)CN1CCN(S(=O)(=O)c2cc(Cl)ccc2Cl)CC1)c1c(N)n(Cc2ccccc2)c(=O)[nH]c1=O
    -27% | -6% | 4% | ? | -22%&-18% | -25% | 9% | -13%
> CCn1ncc(C2=NOC(C(=O)Nc3ccccc3C(=O)OC)C2)c1C (stereo not given)
    -12% | 4% | 11% | ? | -21% | -1.3% | ? | ?
> Cc1c(Cl)ccc2sc(N3CCN(C(=O)C4=COCCO4)CC3)nc12
    . | -16% | -4% | ? | 17% | . | . | ?
> Cc1ccc(N2CC(C(=O)N3CCC(C(=O)Nc4nnc(C(C)(C)C)s4)CC3)CC2=O)cc1 (stereo not given)
    17% | 9% | 2% | -26%[46.1 µM] | -11% | . | . | -11%
> CC(C)(C)NC(=O)CN(CC1CCCO1)C(=O)CNS(=O)(=O)c1ccc(F)cc1 (stereo not given)
    0% | 5% | 0% | -8%[46.1 µM] | 5% | . | . | 6%
> CC(=O)Nc1ccc(S(=O)(=O)NCC2CCC(C(=O)NCCN(CC(C)C)CC(C)C)CC2)cc1 (stereo not given)
    . | . | . | . | -3%[46.1 µM] | -3.0% | 2% | -2%
> CCCc1ccc(C(C)NC(=S)NCc2ccc(F)cc2)cc1 (stereo not given)
    -5% | -4% | 5% | ? | ? | . | . | ?
> COc1ccc(Nc2nc(-c3cccs3)cs2)c(OC)c1
    -5% | -17%[3.69 µM] | -11% | 11% | 27% | -6.3% | -12% | 49%[activator]
> COCCCn1c(SCC(=O)NC2CCCCC2)nnc1-c1ccco1
    4% | -3% | 0% | -6%[46.1 µM] | 20%[46.1 µM] | . | . | -1%
> COc1ccc2cc(C3OCCO3)c(Cl)nc2c1
    -5% | 11% | -1% | 6% | 4% | . | . | 70%[activator]
> O=C(O)C1(c2ccccc2)CCN(S(=O)(=O)c2cccc(Cl)c2)CC1
    -4% | 21% | -1% | 16%[46.1 µM] | 8%[46.1 µM] | . | . | 5%
> COc1cccc(CN2C(=O)c3ccccc3Sc3ccc(C(=O)OCc4ccco4)cc32)c1
    . | . | . | . | -29%[46.1 µM] | -2.2% | -11% | -7%
> Cc1ccsc1C(=O)OC(C)C(=O)NC1CCCCC1C (stereo not given)
    . | 1% | 0% | 24% | 1% | . | . | -5%
> O=c1c2ccccc2nc(SCc2cc(F)ccc2F)n1C1CCCC1
    2% | 10% | -3% | -27% | 62%[14.3 µM] | 0.1% | ? | 17%
> Cc1ccnc(NS(=O)(=O)c2cc([N+](=O)[O-])ccc2C)c1
    . | -3% | 0% | -2%[46.1 µM] | -10% | . | . | 86%[activator]
> O=C1CCCC2=C1C(c1ccccn1)Nc1ccc(C(=O)c3ccccc3)cc1N2 (stereo not given)
    19% | 5% | 3% | -36% | -9% | -8.3% | -2% | 6%
> O=C(Nc1ccc(C(=O)N2CCCC2)cc1)c1ccc(F)cc1Cl
    -3% | -8% | 1% | 17% | 2% | . | . | 19%
> Cc1ccc(Cn2nnnc2CN2CCC(n3nnc4ccccc43)CC2)cc1
    -30% | 0% | 3% | -27% | ? | -0.6% | 8% | ?
> COc1ccc(C(C#N)=C2C=CC(=NO)C=C2)cc1
    -92% | ? | -21% | ? | ? | . | . | 10%
> COc1cccc(NC(=O)CSc2nc(=O)n(Cc3ccco3)c3c2CCC3)c1
    . | . | . | . | 3%[46.1 µM] | -3.7% | -14% | 8%
> CCCCN(CCCC)CC1OCc2ccccc2CO1
    -7% | -15% | 1% | ? | ? | 1.2% | -2% | 0%
> Brc1ccc(/C=N/n2cnnc2)s1
    0% | 3% | 1% | ? | 0%[46.1 µM] | . | . | -21%
> Cn1c(=O)c2c(nc(N3CCCC3)n2C)n(C)c1=O
    0% | 9% | 2% | . | . | . | . | 29%
> Cc1nnc(SCC(=O)N2CCN(c3ccccc3)CC2)n1C1CC1
    . | -15% | -1% | 27% | 13% | . | . | -29%
> CCN(CC(=O)Nc1cc(Cl)ccc1C)C(=O)CCS(=O)(=O)c1ccc(Cl)cc1
    11% | -18% | -4% | ? | -3% | . | . | -22%
> COC(=O)c1ccc2c(=O)[nH]c(COC(=O)CCC(=O)c3ccc(Cl)cc3)nc2c1
    . | 3% | 1% | 13%[46.1 µM] | 9% | . | . | 0%
> Cc1ccc(/C=N/Nc2ccnc3cc(Cl)ccc23)c(C)c1
    5% | 3% | -57% | ? | ? | ? | -25% | 40µM*
> O=C(Nc1nc(-c2ccccc2)c(C(=O)c2ccccc2)s1)c1ccc(S(=O)(=O)N2CCCCC2)cc1
    4% | 3% | ? | ? | -11% | -5.5% | 7.9µM* | -13%
> CCN(CC(=O)Nc1cccc(S(=O)(=O)N2CCCC2)c1)CC(=O)Nc1ccccc1OC
    . | -23% | 0% | ? | -4% | . | . | -29%
> CC12CCC(C(=O)N(NC(=O)c3cc(Cl)ccc3O)C1=O)C2(C)C (stereo not given)
    -11% | 1% | 1% | 16% | -8% | -0.5% | 8% | 7%
> Cc1cc(OC(=O)C(c2ccccc2)c2ccccc2)c([N+](=O)[O-])c(=O)[nH]1
    -3% | -5% | 3% | ? | 14% | -0.7% | -7% | -14%
> CCC(=O)/C=C1\Sc2ccccc2N1CC
    3% | -27% | -1% | -3% | 1% | -11% | -18% | -20%
> COc1cc(NC(C)C(=O)N2CC(C)OC(C)C2)cc(OC)c1 (stereo not given)
    0% | -9% | -1% | 9% | 18% | 0.8% | 8% | 2%
> CC1(C)COC(Nc2cccc(Cl)c2)=N1
    -4% | -4% | 0% | 1% | 14% | -10% | 0% | 6%
> O=C(c1ccc2c(c1)N(Cc1ccccc1)CCS2)N1CCOCC1
    2% | -16% | 1% | . | . | . | . | 12%
> Cc1cccnc1NC(=O)CSc1ncnc2sc(C)c(C)c12
    . | 26% | -2% | 13% | -2% | . | . | -1%
> O=S(=O)(c1ccc(Cl)c(NC(=S)N/N=C/c2ccc(O)cc2)c1)N1CCOCC1
    22% | 3% | -6% | ? | 12µM* | -18% | ? | ?
> CCOC(=O)N1CCc2c(sc(NCc3sccc3C)c2C(=O)Nc2ccccc2OCC)C1
    . | . | . | . | -19%[46.1 µM] | -6.1% | ? | -23%
> Cc1ccc(NC(=O)CCn2cnc3cc(C)c(C)cc32)cc1
    8% | -2% | 1% | -9% | -15% | -5.3% | -8% | -23%
> Cc1ccc(-c2nc(S(=O)(=O)c3ccc(C)cc3)c(N3CCCCCC3)o2)cc1
    . | . | . | 1%[46.1 µM] | ? | -0.4% | -1% | 45%[activator]
> Cc1cccc(C)c1NC(=O)CNC(=O)CCC(=O)c1cccs1
    14% | -4% | 9% | -32% | 10% | -2.1% | -5% | 12%
> COC(=O)c1cc(C(=O)NCc2ccccc2)c(=O)[nH]c1C
    1% | -2% | 2% | ? | -4%[46.1 µM] | . | . | 23%
> Cn1nnnc1SCC(=O)Nc1ccc(Cl)cc1Cl
    6% | . | -6% | . | . | 6.5% | -4% | .
> CS(=O)(=O)N(CC(=O)Nc1cccc([N+](=O)[O-])c1)c1cccc(F)c1
    2% | -10% | 0% | . | . | . | . | -27%
> CCOC(=O)CC(=O)CSc1nccc(-c2cccnc2)n1
    9% | 2% | 2% | 6%[46.1 µM] | 13% | . | . | -22%
> CC(NC(=O)c1ccc2c(c1)OCCO2)C(=O)O (stereo not given)
    -5% | 12% | -3% | 9% | 6% | 2.8% | -6% | .
> COCCn1c(=S)[nH]c2cc(OC)c(OC)cc2c1=O
    2% | -11% | -2% | 15% | -2% | -2.2% | -18% | .
> Cc1cc(NC(=O)CSc2nnc3c(C)cc4cc(C)c(C)cc4n23)no1
    5% | 7% | 7% | -2% | 15% | 7.4% | 3% | -4%
> O=C(O)c1c[nH]ccc1=O
    4% | 7% | 12% | 7% | -8% | 1.8% | -6% | 17%

Next section:
Second line of a record: NS1 inh | RE007 growth inh | SARS PLpro yeast | MARV entry inh | LASV entry inh | Cruzain inh Det | Cruzain inh noDet | StopGo reporter
> CCN(CC(=O)Nc1ccc(NC(C)=O)cc1)C(=O)CC1OC(=O)c2ccccc21 (stereo not given)
    . | 1% | 0% | 4% | 11% | . | . | -3%
> Clc1cccc(N/N=C/c2ccc(N3CCOCC3)s2)c1
    10% | 162% | -59% | 17% | 4% | -14% | 32µM* | ?
> COc1cccc(N2CCN(CC(=O)Nc3ccc(SC(F)F)cc3)CC2)c1
    -24% | -19% | -23% | -6% | -21% | -6.9% | 12% | -27%
> CCOC(CCn1c(SCc2ccc([N+](=O)[O-])cc2)nc2ccccc2c1=O)OCC
    0% | 0% | -16% | ? | ? | -4.2% | 11% | ?
> COc1ccccc1C(=O)NC(C)c1ccccc1 (stereo not given)
    -1% | -1% | -11% | -32% | 16% | 1.2% | 6% | -19%
> Cc1cccc(NC(=O)COC(=O)CCc2ccccc2)c1C
    -6% | -7% | -4% | 5% | -3% | . | . | 1%
> O=C(Oc1ccc(F)c(F)c1)c1ccc2c(=O)n3c(nc2c1)CCC3
    . | -16% | 7% | -1%[46.1 µM] | -3% | . | . | 2%
> CCOC(=O)C1=C(C)NC(=O)NC1c1ccc(OCC(=O)Nc2ccccc2)c(OC)c1 (stereo not given)
    -45% | -8% | 1% | -3% | . | -2.3% | 5% | -29%
> COc1ccc(S(=O)(=O)N2CCCCCC2)cc1C(=O)Nc1ccccn1
    -13% | 0% | -2% | 4% | -4% | . | . | 18%
> Cc1ccc(N(CC(=O)NC2CCCCC2)S(=O)(=O)c2c(C)noc2C)cc1
    15% | 13% | 12% | ? | -3%[46.1 µM] | . | . | 0%
